Source: PubChem BioAssay (National Center for Advancing Translational Sciences (NCATS))
VDR inhibitor: Inhibitors of the vitamin D receptor (VDR): qHTS. AID 504847, 2011. Vitamin D3 receptor (Homo sapiens), P11473. 400,000 tested, 0.93% active. Potency, µM, inactives show max response, negative = inhibition, usual class: inhibitors. VDR-SRC2-3 peptide fluorescence polarization, 2 h; active means well fitted inhibition curve with a large enough effect; inconclusive means small, poorly fitted or top-dose-only effect, or another doubt; inactive means no such curve, though single readings can be large or run the other way; further: series mostly up to about 120 µM
Target sequence (P11473 whole entry, looked up): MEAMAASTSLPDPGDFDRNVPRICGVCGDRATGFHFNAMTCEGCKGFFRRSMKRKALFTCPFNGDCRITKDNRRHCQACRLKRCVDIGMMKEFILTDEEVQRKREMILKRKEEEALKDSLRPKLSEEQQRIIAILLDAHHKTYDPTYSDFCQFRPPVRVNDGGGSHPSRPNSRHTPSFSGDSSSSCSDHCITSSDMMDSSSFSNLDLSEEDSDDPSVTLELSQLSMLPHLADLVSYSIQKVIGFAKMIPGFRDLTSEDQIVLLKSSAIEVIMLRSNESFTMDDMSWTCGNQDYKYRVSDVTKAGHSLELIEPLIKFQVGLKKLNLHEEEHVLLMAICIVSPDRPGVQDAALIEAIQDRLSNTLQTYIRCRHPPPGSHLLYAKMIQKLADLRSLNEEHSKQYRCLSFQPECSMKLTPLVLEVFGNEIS
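Two reagent solutions held at 4 deg C in the dark were dispensed, compounds pinned at 23 nl, and the mixture incubated 2 h at room temperature. Read-out: fluorescence polarization of VDR–SRC2-3 peptide binding.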
The depositor's hits bear a star; ? = inconclusive; & = joins results of further samples. On the % scale 0 is the no-effect control and ±100 the full control effect; potency means the concentration at half of the fitted maximal effect. A portion of the library; the hit share may differ from the screen's.

A first look (3 entries):
structure | VDR inhibitor
Cc1ccc(-c2onc(C)c2C)cc1S(=O)(=O)N1CCN(c2ccccc2F)CC1 | -4%
COc1ccc(NC(=O)/C(=C/c2ccc(OC(C)=O)c(OC)c2)NC(C)=O)cc1 | 13%
CCCCNC(=O)[C@@H](c1ccccc1)N1Cc2ccccc2C1=O | -1%

Main list, previewed entries included:
structure | VDR inhibitor
Cc1ccc(-c2onc(C)c2C)cc1S(=O)(=O)N1CCN(c2ccccc2F)CC1 | -4%
COc1ccc(NC(=O)/C(=C/c2ccc(OC(C)=O)c(OC)c2)NC(C)=O)cc1 | 13%
CCCCNC(=O)[C@@H](c1ccccc1)N1Cc2ccccc2C1=O | -1%
O=C(NNS(=O)(=O)c1ccc([N+](=O)[O-])cc1)c1ccccc1 | -5%
COc1ccc(NC(=O)CC2C(=O)N(c3ccc(Cl)cc3)C(=S)N2CCc2ccncc2)cc1 (centres undefined) | 17%
COc1ccc(CCNC(=O)C2CCC(=O)N(C3CCCCCC3)C2)cc1 (centres undefined) | 17%
CC(C)OC(=O)c1cc2c(ccn2C)n1CC(=O)N(Cc1ccccc1)c1ccccc1 | -11%
S=C1SCN(Cc2ccccc2)CN1Cc1ccccc1 | 16%&-19%
CCCn1c(O)c(N=NC(=O)CNC(=O)Cc2ccc(OC)cc2)c2ccccc21 | -3%
O=C(Cn1cnc2sc3c(c2c1=O)CCCC3)NCC(=O)Nc1c(F)cccc1F | -13%
O=C(c1cccs1)N1CCN=C1SCc1ccccc1F | -14%
CN(Cc1ccc2c(c1)OCCO2)C(=O)CSc1ncnc2sccc12 | -12%
CCOC(=O)CN(c1cc([N+](=O)[O-])ccc1OC)S(C)(=O)=O | -6%
CCC(C)NC(=O)COCc1cc(-c2ccc3c(c2)OCO3)on1 (centres undefined) | 17%
CC1=C(C(=O)Nc2ccccc2)C(c2ccc(C(=O)O)cc2)n2nc(SCC(=O)c3ccc(C)cc3)nc2N1 (centres undefined) | 19%
COc1ccc(C(=O)NCCNc2ccc([N+](=O)[O-])cc2)cc1OC | ?
COC(Cn1c(C)c(C(C)=O)c(C(C)=O)c1C)OC | -2%
O=C1Nc2ccccc2C1(O)C/C(=N/O)c1ccccc1 (centres undefined) | ?
CCCCCCSc1nnc2c(n1)OC(C)Nc1ccc(Br)cc1-2 (centres undefined) | 14%
O=c1cc(-c2ccco2)nc(SCc2cccc(Cl)c2)[nH]1 | -12%
CN(C(=O)c1cccc(C#N)c1)c1nnc(-c2ccncc2)s1 | -2%
COCCNC(=O)c1ccc(-n2c(SCc3ccncc3)nc3ccccc3c2=O)cc1 | -1%
CC(=O)OC1=Cc2c(ccc3ccc(=O)oc23)OC1(C)C | 0%
Cc1noc(C)c1-c1cncnc1Nc1ccccc1 | ?
O=C(Nc1cccc2c1C(=O)NC2=O)c1ccccc1[N+](=O)[O-] | -8%
COc1cc(NC(=O)C23CC4CC(C2)CC(n2nnc(C)n2)(C4)C3)c(OC)cc1Cl | 6%
Cc1coc(NC(=O)CSc2nc(-c3ccncc3)cc(C(F)(F)F)c2C#N)n1 | -11%
Cc1nc(CS(=O)(=O)c2ccccc2)cc(Sc2ccc(Cl)cc2Cl)n1 | 1%
O=C(CSc1nn(-c2ccc(Cl)cc2)c(=S)s1)N1CCN(C(=O)c2ccco2)CC1 | 8%
COc1ccc(-c2cc(C)no2)cc1S(=O)(=O)NCc1ccc(OC(C)C)cc1 | -9%&14%
Cc1nc(-c2ccc(NS(C)(=O)=O)cc2)cs1 | 7%
COc1cc(Cl)ccc1OCc1cc(C(=O)N2C[C@]3(C)C[C@H]2CC(C)(C)C3)no1 | 10%
CCc1ccc(-c2nc(SCC(=O)N(C)C3CCS(=O)(=O)C3)n[nH]2)cc1 (centres undefined) | 10%
Clc1ccc(/C=C/c2nc3ccccc3[nH]2)c(Cl)c1 | -4%
COc1cc(/C=C(\CCC(=O)O)c2nc3ccccc3s2)ccc1OCC(=O)Nc1c(Cl)cccc1Cl | -7%
COC(=O)c1sccc1NC(=O)CSc1ccc(Cl)cc1 | 19%
CCN(CC)Cc1c(O)c(Cl)cc2c(C)cc(=O)oc12 | -5%
CC(=O)NC(c1ccccc1)c1cc([N+](=O)[O-])c2cccnc2c1O (centres undefined) | -9%
COCCNC(=O)c1onc(CSc2ccc(F)cc2)c1C(=O)NCCOC | 2%
O=c1c2c3c(sc2[nH]c(=S)n1Cc1ccco1)CCC3 | -6%
Cc1nn(CCOc2ccccc2)c(=O)n1-c1ccccc1F | -2%
CCOc1ccccc1Nc1nc(N2CCCC2)nc(N2CCOCC2)n1 | -6%
Nc1nc(NCC2CCCO2)nc(Nc2ccccc2)c1[N+](=O)[O-] (centres undefined) | -2%
CCC(OC(=O)C(CC(C)C)NC(=O)c1ccccc1)C(=O)Nc1nnc(C)s1 (centres undefined) | 13%
CC(=O)Nc1c(Cl)n(C(C)=O)c2ccccc12 | 5%
O=C(Nc1ccc(Br)cc1)c1ccc(Br)c(S(=O)(=O)Nc2cccnc2)c1 | 0%
OCCC1CN(Cc2nc3ccccc3s2)CCN1CCc1ccccc1 (centres undefined) | ?
COc1cc(OC)c2c(-c3cccc(/C=C/c4ccc(F)cc4)c3)cc(=O)oc2c1 | -2%&-6%
CN(C)/N=C1\C(=O)N(CN2CCN(c3ccccc3)CC2)c2ccccc21 | 4%
COCC1CCCCC1OS(N)(=O)=O (centres undefined) | -10%

Reprinted at random: 2 records from the list.
structure | VDR inhibitor
CCN(CC)Cc1c(O)c(Cl)cc2c(C)cc(=O)oc12 | -5%
COC(=O)c1sccc1NC(=O)CSc1ccc(Cl)cc1 | 19%

(cont.)
structure | VDR inhibitor
O=C(C1=C[C@H](c2ccc(C(F)(F)F)cc2)C[C@H](OCCCCO)O1)N1CCN(Cc2ccccc2)CC1 | -10%
N#CCCNS(=O)(=O)c1ccc(C(=O)OCC(=O)Nc2ccc3c(c2)OCO3)cc1 | -2%
CC(=O)N1CCc2cc(S(=O)(=O)CCC(=O)N3CCN(c4ccccc4F)CC3)ccc21 | -8%&-14%
O=C(c1cc(N2CCCCC2)nc2ccccc12)N1CCOCC1 | -14%
CN(C(=O)CN(C)S(=O)(=O)c1ccc(F)cc1)c1c(N)n(Cc2ccccc2)c(=O)[nH]c1=O | 4%
Cc1cc2cc(CNC(=O)c3ccc(Br)o3)ccc2n1C | 79µM*
COc1ccc(NC(=O)Cn2c(=O)oc3cc(S(=O)(=O)N4CCCCCC4)ccc32)cc1OC | 9%
Cc1ccc(NC(=S)NC(=O)c2cncc(Br)c2)c(C)c1 | -2%
O=C(COC(=O)CCC(=O)c1cccs1)NC(=O)c1ccc(OC(F)F)cc1 | -27%
CC1=CC2=NC(=O)CC(C)(C(=O)N(CC(=O)NC3CCCC3)Cc3ccccc3)N2C=C1 (centres undefined) | -12%

Taken from above:
`O=C(C1=C[C@H](c2ccc(C(F)(F)F)cc2)C[C@H](OCCCCO)O1)N1CCN(Cc2ccccc2)CC1` | VDR inhibitor: -10%
`Cc1cc2cc(CNC(=O)c3ccc(Br)o3)ccc2n1C` | VDR inhibitor: 79µM*
`N#CCCNS(=O)(=O)c1ccc(C(=O)OCC(=O)Nc2ccc3c(c2)OCO3)cc1` | VDR inhibitor: -2%

Following part:
structure | VDR inhibitor
CC(C)N(C(=O)[C@H]1C[C@H](CC(=O)NCCCN(C)C)C(=O)N2CCc3c([nH]c4ccc(Cl)cc34)[C@]12C)C(C)C | 2%
CCSS(=O)(=O)c1cccc2cccnc12 | 16µM*
CCN(CC)Cc1c(O)ccc2c(=O)c(-c3ccccc3OC)coc12 | -12%
CCN(Cc1ccc(OC)c(COC)c1)CC1CCCN(CCc2cccc(F)c2)C1 (centres undefined) | -9%
CCCn1c(SCC(=O)Nc2ccccc2N2CCOCC2)nc2c1c(=O)n(C)c(=O)n2C | -3%
CC1CCN(c2nc3c(S(=O)(=O)c4cccc(Cl)c4)nnn3c3ccsc23)CC1 | 7%
CCn1c(Cc2ccc(OC)cc2)nnc1SCc1nc2ccccc2c(=O)[nH]1 | -4%
O=C(CSc1n[nH]c(=O)n1-c1ccc2c(c1)OCCO2)Nc1ccccc1 | 12%
Cc1ccc2c(CNCc3ccco3)cc(=O)oc2c1 | 16%
COc1cccc(C(=O)n2cnnc2N)c1OC | 19%
CCOC(=O)CNC(=O)CSc1nc(-c2ccc(C)cc2)ns1 | ?
C=CCN1CCN(C(CC(C)C)c2nnnn2CCOC)CC1 (centres undefined) | 14%
CCOC(=O)c1cc(NC(=O)C2C3CCC(O3)C2C(=O)O)cc(C(=O)OCC)c1 (centres undefined) | 4%
COC(=O)COc1cccc(-n2cnnn2)c1 | 14%
COc1cc2cc(CN(CCO)S(=O)(=O)c3ccccc3)c(=O)[nH]c2cc1OC | 5%
CC(=O)c1ccc(S(=O)(=O)Nc2cccc(-n3cnnn3)c2)cc1 | -4%
CCCC(NC(=O)C(C)N1CCN(S(=O)(=O)c2ccccc2)CC1)c1ccccc1 (centres undefined) | -13%
COC(=O)CCCCCNC(=S)Nc1ccc2[nH]c(=O)[nH]c2c1 | -14%
O=C(NNC(=O)c1cc([N+](=O)[O-])ccc1Cl)c1cccnc1 | -7%
Cc1cccn2c(CNCCc3ccco3)c(C(=O)N3CCOCC3)nc12 | -4%

Overlap with the part before: 5 entries; new compounds follow.
structure | VDR inhibitor
CC(=O)c1ccc(S(=O)(=O)Nc2cccc(-n3cnnn3)c2)cc1 | -4%
CCCC(NC(=O)C(C)N1CCN(S(=O)(=O)c2ccccc2)CC1)c1ccccc1 (centres undefined) | -13%
COC(=O)CCCCCNC(=S)Nc1ccc2[nH]c(=O)[nH]c2c1 | -14%
O=C(NNC(=O)c1cc([N+](=O)[O-])ccc1Cl)c1cccnc1 | -7%
Cc1cccn2c(CNCCc3ccco3)c(C(=O)N3CCOCC3)nc12 | -4%
CCOC(=O)C(NC(=O)Nc1ccc(O)cc1)(c1ccccc1)C(F)(F)F (centres undefined) | 11%
CCn1cc(S(=O)(=O)c2cc(C)cc(C)c2)c(=O)c2cc(F)c(N3CCOCC3)cc21 | 14%
CCOc1ccc(NC(=S)NCc2ccc3c(c2)OCO3)cc1 | -2%
CCc1ccc(CN2CCC(n3nccc3NC(=O)Cc3ccccc3)CC2)o1 | -9%
COc1ccc(OC)c(C(=O)NC(CC(N)=O)c2ccc(N3CCC(Cc4ccccc4)CC3)c([N+](=O)[O-])c2)c1 (centres undefined) | -5%
Cc1c(NC(=O)C(C)OC(=O)c2cc(Cl)ccc2O)c(=O)n(-c2ccccc2)n1C (centres undefined) | -21%
COc1ccc(C(=S)N2CCN(c3cccc(Cl)c3)CC2)c(OC)c1 | ?
CCC(=O)Nn1c(C)nnc1C | 15%
O=C(NCc1ccc(Cl)cc1)C1CCC(CNS(=O)(=O)c2ccccc2)CC1 (centres undefined) | -1%&11%
CCC(=O)N1c2ccccc2CC1C(=O)NCCCN1CCN(c2ccc(OC)cc2)CC1 (centres undefined) | 7%
Cc1ccc2c(c1)N(CC(=O)N1CCCCCC1)C(=O)CO2 | -13%
CC1CCC2(CC1)NC(=O)N(Cc1nc(-c3ccccc3)no1)C2=O (centres undefined) | -10%
COc1cccc(NC(=O)n2nc(N)cc2-c2ccc(Cl)cc2)c1 | -2%
COc1ccccc1C(=O)Nc1ccc2oc(-c3cccc(Cl)c3Cl)nc2c1 | -21%
Cc1ccc(S(=O)(=O)Nc2cccc(C(=O)NC3CCN(Cc4ccccc4)CC3)c2)cc1F | -1%
O=C(O)COc1ccc(/C=N/NC(=O)Cc2ccc(Cl)cc2)cc1 | 20%
COc1ccc(N2CC(C(=O)NCc3ccco3)CC2=O)cc1 (centres undefined) | 16%
Oc1ccc(N=Cc2ccc(O)c(O)c2)cc1 | ?
O=CN1CCN(C(=O)CC(c2ccccc2)c2cc(Br)ccc2O)CC1 (centres undefined) | -14%
Cc1ccc(NC(=O)CN(C)C(=O)CSc2nc3ccccc3o2)cc1 | -2%
COc1ccc(C(=O)OCCN2CCOCC2)cc1OC | 5%
CCCn1c(=O)c(C(=O)NCc2cccnc2)c(O)c2ccccc21 | 3%
COc1ccc(OC)c(S(=O)(=O)N2CCN(C(=O)c3cc(C4CC4)nn3-c3ccccc3)CC2)c1 | 1%
Cn1c(=O)c2c(nc(C3CC4C5CCC(C5)C4C3)n2C)n(C)c1=O (centres undefined) | -22%
Cc1[nH]c2ccc(F)cc2c(=O)c1SC(F)(F)C(F)F | -9%
Cc1nc(C)n(C(C)CC(=O)O)n1 (centres undefined) | 12%
COc1ccc(C2C(C(=O)c3ccco3)=C(O)C(=O)N2CCN2CCOCC2)c(OC)c1 (centres undefined) | -11%
CC(C)c1ccc(CN2CC(C(=O)O)CC2=O)cc1 (centres undefined) | 3%
C/C(=C\C(=S)Nc1ccccc1)Nc1ccc2ccccc2c1 | -17%
COC(=O)NNC(=O)COc1cc(C)ccc1C | -16%
CCOc1ccc(Nc2nc(NCc3ccco3)nc(N)c2[N+](=O)[O-])cc1 | 25%
Cc1cnc(C(=O)OCC(=O)NCCc2ccccc2)cn1 | 0%
COc1ccccc1N1CCN(S(=O)(=O)CCNC(=O)COc2ccccc2F)CC1 | 10%
CC1(C)C(c2cccs2)=[N+]([O-])C2(CCCCC/C2=N\NC(N)=O)N1O (centres undefined) | -2%
Cc1ccccc1 | 0%
COC(=O)CNC(=O)c1cccs1 | -6%
N#CN1CCC(NS(=O)(=O)c2ccc(C(F)(F)F)cc2)CC1 | -25%
CC1(C)Cc2cccc(OCC(=O)NCc3cccs3)c2O1 | -9%
